Source: PubChem BioAssay (National Center for Advancing Translational Sciences (NCATS))
D2 agonist – Beta-Arrestin HTS for Positive Allosteric Modulators of the Human D2 Dopamine Receptor: Agonists; D(2) dopamine receptor (Homo sapiens), P14416; DiscoveRx PathHunter D2 beta-arrestin, luminescence, 90 min; 100% = 57 uM dopamine signal; activation, % (test concentration not listed); 360,000 compounds, 0.084% hits; in the data active = activation above about 40%; inconclusive = about 15% to 40%; inactive = below about 15%; also: compound concentration not given in the record; the text of the record calls up to 30% inactive
Target sequence (P14416 whole entry, looked up): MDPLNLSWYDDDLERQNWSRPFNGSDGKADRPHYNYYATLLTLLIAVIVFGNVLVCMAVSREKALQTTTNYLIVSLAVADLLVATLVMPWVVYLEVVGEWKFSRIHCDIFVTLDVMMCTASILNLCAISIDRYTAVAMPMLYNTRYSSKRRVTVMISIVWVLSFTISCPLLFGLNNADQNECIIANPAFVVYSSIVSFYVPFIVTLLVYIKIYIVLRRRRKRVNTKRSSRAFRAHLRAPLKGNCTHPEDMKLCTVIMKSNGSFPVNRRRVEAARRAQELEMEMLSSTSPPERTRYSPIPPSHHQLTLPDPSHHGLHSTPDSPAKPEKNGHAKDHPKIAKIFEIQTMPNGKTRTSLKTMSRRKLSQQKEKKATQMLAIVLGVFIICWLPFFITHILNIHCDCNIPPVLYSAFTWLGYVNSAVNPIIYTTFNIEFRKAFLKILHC
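DiscoveRx PathHunter D2 beta-arrestin cells (2,100/well) attached overnight, then compound-stimulated 90 min at 37 C in HBSS/10 mM HEPES/0.1% Tween-20 buffer; beta-galactosidase complementation read by luminescence after 1 h at ambient temperature. Dopamine 57 uM final (EC100) as control.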
CtBP-E1A inh – qHTS Assay for Inhibitors of the CtBP/E1A Interaction; 340,000 compounds, 0.49% hits; CtBP / adenovirus E1A interaction (AlphaScreen); activity change, % (concentration not given with the values); AlphaScreen GST-E1A/His-CtBP binding, 1536-well; stronger effect = lower value; control for the full effect not named in the record; in the data active means activity change below about -65%; inconclusive means about -30% to -65%; inactive means above about -30%; also: % is scaled to controls: 0 for no effect and ±100 for the full control effect
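Protein mix (5X: 125 nM each GST-E1A, His-CtBP) was incubated with pinned compound 2 h at 37 deg C in dark, in 50 mM Tris pH 8.0 buffer with 300 mM NaCl. Glutathione donor and nickel acceptor beads followed; AlphaScreen signal read after 1 h.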
Six1-Eya2 blk – qHTS Assay for Inhibitors of the Six1/Eya2 Interaction; 360,000 compounds, 0.56% hits; Homeobox protein SIX1 (Homo sapiens) + Protein phosphatase EYA2 (Homo sapiens), …; AID 651725, 2012; AlphaScreen GST-Six1/His-Eya2 binding, biochemical; stronger effect = lower value; control for the full effect not named in the record; activity change, % (concentration not given with the values); in the data active = activity change below about -65%; inconclusive = about -30% to -65%; inactive = above about -30%; also: % is scaled to controls: 0 for no effect and ±100 for the full control effect
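Six1/Eya2 binding was read as AlphaScreen signal after compounds were pinned into GST-Six1 plus His-tagged Eya2 (5X stock 250/500 nM) in pH 8.0 Tris/NaCl/TCEP buffer, beads added, then incubated 1 h, 37 C, dark.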
gsp agonist – qHTS for Agonist of gsp, the Etiologic Mutation Responsible for Fibrous Dysplasia/McCune-Albright Syndrome: qHTS; 340,000 compounds, 0.13% hits; Potency, µM (doses to about 76.9 µM), inactives show at the top dose activation (cAMP increase), hits mostly activators; AID 624287, 2012; gsp mutant cells, cAMP HTRF, 30 min; control for the full effect not named in the record; active = well fitted activation curve with a large enough effect; inconclusive = small, poorly fitted or top-dose-only effect, or another doubt; inactive = no such curve, though single readings can be large or run the other way; cell line not stated here;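 also: phosphodiesterase inhibitor Ro 20-1724 added with compounds to block cAMP breakdown; potency is read from the fitted curve at half-maximal effect; nearly all actives have a fitted effect of over 60% in size; about a fifth of the inactives were tested at one dose only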
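Cells stably selected in G418 were plated at 2000/well, grown 16-24 hr, then given compounds in DMSO with the PDE inhibitor […] (300 uM solution added) for 30 min at 37C; cAMP was read by HTRF.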
gsp antag – qHTS for Antagonists of gsp, the Etiologic Mutation Responsible for Fibrous Dysplasia/McCune-Albright Syndrome: qHTS | gsp-mutant cells, cAMP HTRF, 30 min; control for the full effect not named in the record | Potency, µM (doses to about 76.9 µM), for inactives: at the highest dose activity change, negative = inhibition, most hits filed as inhibitors | 340,000 compounds, 0.4% hits | AID 624288, 2012; active = falling curve of any shape with a large fitted effect; inconclusive = falling curve, mostly with a smaller effect; inactive = flat or rising curve; cell line not stated here;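 also: intracellular cAMP measured with PDE inhibitor Ro 20-1724 present during compound exposure; potency is read from the fitted curve at half-maximal effect; % is scaled to controls: 0 for no effect and ±100 for the full control effect; nearly all actives have a fitted effect of over 65% in size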
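HTRF cAMP read-out (cAMP-d2 plus anti-cAMP antibody-K in lysis buffer, 30 min RT). Before lysis, cells are exposed to compounds with […] for 30 min at 37C in DPBS containing Ca/Mg, BSA and Tween 20.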
D2 PAM – Beta-Arrestin HTS for Positive Allosteric Modulators of the Human D2 Dopamine Receptor: Potentiators; D(2) dopamine receptor (Homo sapiens), P14416; DiscoveRx D2 beta-arrestin cells, luminescence, 90 min; 100% = 57 uM dopamine signal; potentiation, % (test concentration not listed); 360,000 compounds, 0.23% hits; active = potentiation of 50% or more; inconclusive = 30% to 50%; inactive = 30% or less;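 also: compound concentration not given in the record; tested on top of an EC20 dose of dopamine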
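PathHunter D2 cells, attached overnight at 37 deg C, received compound in DMSO plus dopamine at EC20 (50 nM final) for 90 min at 37 deg C. Beta-arrestin recruitment was read as luminescence after 1 h with detection reagent at ambient temperature.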
* hit, by the source's call; ? = inconclusive; . = not tested or not shown; [ ] = remark or other dose.

D2 agonist | CtBP-E1A inh | Six1-Eya2 blk | gsp agonist | gsp antag | D2 PAM | SMILES
0.8 | ? | -18 | -3% | -3% | ? | COc1cc(/C=C/C(=O)OCC(=O)N2CCN(S(=O)(=O)c3ccc(C)cc3C)CC2)cc(Cl)c1OC
-2.6 | -72* | ? | 37% | ? | 0 | O=C(CSCC(=O)Nc1ccccc1)N/N=C/c1c(O)ccc2ccccc12
-3.9 | 3 | 1 | ? | -4% | -6 | O=C(CCc1nnc2ccc(N3CCC4(CC3)OCCO4)nn12)Nc1ccc(F)cc1
-4.6 | -6 | -4 | -22% | -1% | -7 | COc1ccc(-c2ccc(=O)n(CC(=O)Nc3ccc4c(c3)OCCO4)n2)cc1
-4.2 | -10 | 4 | -3%[15.4 µM] | 9% | -1 | CCc1ccc(C(=O)Nc2ccc(OC)c(S(=O)(=O)N3CCOCC3)c2)cc1
-0.6 | -8 | -12 | 10%[15.4 µM] | -5% | -4 | COc1ccc(C(Nc2cc(C)ccn2)c2ccc3ccc(C)nc3c2O)cc1 (stereo not drawn)
4.4 | -1 | -4 | 3% | 4% | 3 | O=C(O)c1cc(S(=O)(=O)Nc2ccc(OCc3ccccc3)cc2)ccc1Br
-1.7 | 0 | 4 | -6%[15.4 µM] | -11% | -3 | CC(C)(C)C(=O)N/C(N)=N/c1nc2ccccc2o1
-1.4 | 13 | 0 | -4% | -10% | 1 | CCCCn1c(=NC(=O)c2cccnc2)c(C(=O)OCC)cc2c(=O)n3ccccc3nc21
-7.2 | 6 | 2 | 13% | -5% | -34 | Cc1n[nH]c(C)c1S(=O)(=O)N1CCC(C(=O)N2CCn3c2nc2ccccc23)CC1
-17 | . | 9 | -3% | 7% | 2 | N#CCCn1cc(/C=C/C(=O)O)c(-c2ccc(F)cc2)n1
-2.6 | 3 | 5 | 1% | -1% | -20 | CCCCN(C)c1ccc([N+](=O)[O-])cc1
-1.4 | 2 | 0 | -12% | -11% | 1 | CC1(C)Cc2c(cnn2-c2ccc(F)cc2)C(NC(=O)c2cnccn2)C1 (stereo not drawn)
1.7 | 4 | 4 | -9%[15.4 µM] | 15% | -2 | O=C(NCc1ccccc1)c1ccc(OCC2CCCO2)cc1 (stereo not drawn)
-4.4 | 0 | -1 | ? | 3% | -5 | C=CCC(CC=C)(C(=O)O)c1ccccc1
11 | ? | -66* | 9% | -25% | 0 | Cn1c(=O)c(C(=O)NNC(=O)c2ccccc2Br)c(O)c2ccccc21
-0.3 | -3 | -13 | -52%[inhibitor] | -12% | 1 | Cc1ccc(NC(=O)CN(c2ccc(C)cc2)S(=O)(=O)c2cccc3nonc23)cc1
-1.8 | 2 | 2 | -6%[15.4 µM] | 0% | 0 | O=C(CN(Cc1ccccc1)S(=O)(=O)c1ccc(Cl)cc1)NCC1CCCO1 (stereo not drawn)
-2.3 | -4 | 3 | -1% | 8% | -13 | CCN1CCCC1CNCc1cccc(OC)c1OCc1ccc(F)cc1 (stereo not drawn)
-1.2 | 0 | -2 | 1% | ? | 3 | CCOC(=O)Cc1csc(NC(=O)COc2ccc3ccccc3c2)n1
-30 | 3 | -2 | 15% | 5% | 3 | CC(Sc1nc2c([nH]c3ccccc32)c(=O)n1C)c1ccccc1 (stereo not drawn)
0.1 | -2 | -5 | 17% | -8% | 14 | Cc1ccc(C(=O)COc2cccc(NC(=O)c3ccco3)c2)cc1
1.4 | -8 | -1 | -9%[15.4 µM] | 11% | 0 | COc1cc(CC(=O)N(C)CC(=O)Nc2ccc(Cl)c(C(F)(F)F)c2)cc(OC)c1OC
0.0 | 24 | 15 | -58%[inhibitor] | 14% | -4 | CCOc1ccc(CCNS(=O)(=O)c2cn(C)cn2)cc1OCC
-5.6 | 4 | 3 | -4% | 6% | 5 | CC(=O)c1ccc(S(=O)(=O)N2CCC(Oc3ccc(-n4cnnn4)cc3)CC2)cc1
1.0 | -2 | 8 | 4% | -3% | -1 | CCOC(=O)c1[nH]c2ccc(Cl)cc2c1-c1ccccc1
-2.2 | -4 | 3 | -3% | -2% | 0 | COc1ccc(C(=O)CN2C(=O)c3ccccc3S2(=O)=O)cc1Br
0.0 | 1 | 4 | -15% | 8% | -11 | COc1cccc(NC(=O)C2CCN(c3ncccn3)CC2)c1
-0.1 | -8 | 0 | -22% | 3% | -8 | Cc1cnc(NC(=O)CN2C(=O)C3CC=CCC3C2=O)s1 (stereo not drawn)
-1.9 | -4 | -3 | -36%[inhibitor] | -5% | -15 | O=C(COc1ccc2ccccc2c1)N1c2ccccc2Sc2ccccc21
-2.9 | -8 | 1 | 12% | 13% | -12 | Nc1ncnc2nc(SCCc3ccccc3)[nH]c12
-4.2 | 5 | 1 | 9% | 11% | -7 | Cc1nn(CC(=O)NCCN2CCOCC2)c(=O)c2ccccc12
-5.2 | 4 | 5 | -35%[inhibitor] | -3% | -40 | Cc1ccsc1/C=N\NC(=O)c1ccc2c(c1)OCO2
-5.6 | 4 | 13 | -22% | -17% | 4 | O=C1NC(=Nc2cccc(O)c2)S/C1=C\c1cccnc1
-0.2 | 2 | -1 | 14% | 2% | -5 | Cc1ccc(N2C(=O)CC(N3CCN(c4ccc(F)cc4)CC3)C2=O)c(C)c1 (stereo not drawn)
-6.7 | -20 | -22 | -4%[15.4 µM] | -32% | -36 | Cc1cccc2sc(N(CCN(C)C)C(=O)C3CCN(S(=O)(=O)c4cccs4)CC3)nc12
-2.4 | -2 | -4 | 7% | -7% | -5 | Cc1ccc(-c2noc(-c3ccccc3C(=O)N3CCOCC3)n2)cc1
-2.6 | 8 | -2 | -29% | 13% | 1 | Cn1c(SCC(N)=O)nnc1-c1ccc(C(C)(C)C)cc1
-4.4 | -23 | 8 | ? | -4% | -9 | C#CCNC(=O)C1=C[C@H](C2CCCCC2)[C@@H](CCCO)[C@H](OCC)O1
-0.3 | 7 | -1 | 7% | -4% | -3 | Cc1ccccc1N1CCN(C(=O)c2ccc(Oc3ccc(C(F)(F)F)cn3)cc2)CC1
2.5 | 0 | -3 | . | . | 2 | COc1ccc(CC(N)c2csc(NC(=O)CCc3ccccc3)n2)cc1 (stereo not drawn)
4.5 | 0 | 2 | 18% | -6% | 8 | CCOC(=O)CSc1nnc2n1C(C)(C)Cc1ccccc1-2
3.1 | 0 | 11 | -57% | -4% | -7 | NC(=O)c1cc(Cl)cn(-c2ccccc2)c1=O
0.6 | -15 | 14 | -3% | 2% | 25 | O=C(COC(=O)Cc1n[nH]c(=O)c2ccccc12)Nc1c(Cl)cccc1C(F)(F)F
-3.2 | 1 | 11 | -28% | 6% | -4 | CC(C)CN(C(=O)Cn1c(C(F)(F)F)nc2ccccc21)C1CCS(=O)(=O)C1 (stereo not drawn)
5.4 | -16 | -22 | ? | 40µM* | -28 | CCCCNc1c(-c2ccc(OC)c(SC(C)CC)c2)nc2cc(C)ccn12 (stereo not drawn)
-3.3 | -4 | -4 | -12% | 0% | -26 | COCCn1c(SCC(=O)NNC(=O)c2ccccc2)nc2ccccc21
0.2 | 7 | 4 | -13% | -21% | -10 | O=C(CSc1nnc(-c2ccc(F)cc2)o1)NC1CCCCC1
4.5 | -5 | -2 | -3%[15.4 µM] | . | -24 | COC(=O)c1ccc(C2OCC(C)(C)CO2)cc1
44* | -20 | -12 | ? | 2% | 8 | CCCCN(CC)CCNC(=O)c1cc2c(-c3ccccc3F)nn(C)c2s1
-4.7 | -7 | 0 | -27% | -28% | -6 | CSc1nc2ccc(NS(=O)(=O)c3ccc(Br)s3)cc2s1
5.9 | ? | ? | . | . | -3 | COc1cc(CN2C[C@@H](CO)O[C@@H](n3cnc4c(N5CCN(c6ccccc6)CC5)ncnc43)C2)cc(OC)c1OC
-2.3 | . | -2 | 9% | 7% | -5 | COc1ccccc1C(=O)N(C)CC(=O)Nc1ccc(N2CCOCC2)cc1
-2.0 | -24 | 5 | -50%[inhibitor] | -1% | -3 | CSc1ccc(CNC(=O)C2CCC(=O)N(Cc3cccc(F)c3)C2)cc1 (stereo not drawn)
-5.0 | 1 | 3 | -4%[15.4 µM] | 6% | -7 | COc1ccc(CC(=O)NCCCCc2ccccc2)cc1OC
3.0 | 1 | 1 | 16% | -1% | 3 | Cc1cc(C(=O)CCC(=O)N2CCN(c3ccccc3O)CC2)c(C)s1
-2.9 | 9 | -4 | 1%[15.4 µM] | 7% | -1 | CCc1cc(CNC(=O)CC2C(=O)NCCN2Cc2ccccc2C(F)(F)F)on1 (stereo not drawn)
-2.5 | -7 | 3 | -2% | 7% | -21 | CCn1cc(CN2CCC(C(=O)Nc3cccc(-c4cccc(Cl)c4)c3)CC2)cn1
-0.9 | 15 | 4 | 17%[15.4 µM] | -14% | -4 | CC1CCN(c2ccc3nnc(CCC(=O)NC(C)C)n3n2)CC1
7.1 | 5 | 5 | 13% | 18% | -27 | c1ccc(CSc2ccc(-c3cccs3)nn2)cc1
-5.6 | 9 | 16 | -5%[15.4 µM] | -25% | 3 | O=C(/C=C/c1ccc(Cl)cc1)N(Cc1ccccc1)c1ccccn1

Profiles, quoted from the list. Order of values: D2 agonist	CtBP-E1A inh	Six1-Eya2 blk	gsp agonist	gsp antag	D2 PAM
`Cc1ccsc1/C=N\NC(=O)c1ccc2c(c1)OCO2` as listed: -5.2	4	5	-35%[inhibitor]	-3%	-40
`Cc1ccc(-c2noc(-c3ccccc3C(=O)N3CCOCC3)n2)cc1` as listed: -2.4	-2	-4	7%	-7%	-5
`O=C(COC(=O)Cc1n[nH]c(=O)c2ccccc12)Nc1c(Cl)cccc1C(F)(F)F` as listed: 0.6	-15	14	-3%	2%	25
`Cn1c(SCC(N)=O)nnc1-c1ccc(C(C)(C)C)cc1` as listed: -2.6	8	-2	-29%	13%	1
